# Screening data: PubChem BioAssay, several laboratories
# S1P3 antag = S1P3 receptor antagonists, primary screen, cell-based | Sphingosine 1-phosphate receptor 3 (Homo sapiens), Q99500 | CHO S1P3 NFAT-BLA reporter, FRET fluorescence, antagonist mode | inhibition, % at 4.98 µM | 170,000 tested, 0.27% active | AID 485, 2006;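 active means inhibition above the plate cutoff, the mean inhibition of test wells on that plate plus 3 SD, cut at about 28% in these data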;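 further: cells challenged with S1P at its EC80 of 0.8 µM; blue over green emission ratio from cleaved BLA substrate after 4 h stimulation; 0% = S1P-stimulated wells and 100% = unstimulated DMSO-only wells; some compounds past the cut are filed as inactive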
# Target sequence (Q99500 whole entry, looked up): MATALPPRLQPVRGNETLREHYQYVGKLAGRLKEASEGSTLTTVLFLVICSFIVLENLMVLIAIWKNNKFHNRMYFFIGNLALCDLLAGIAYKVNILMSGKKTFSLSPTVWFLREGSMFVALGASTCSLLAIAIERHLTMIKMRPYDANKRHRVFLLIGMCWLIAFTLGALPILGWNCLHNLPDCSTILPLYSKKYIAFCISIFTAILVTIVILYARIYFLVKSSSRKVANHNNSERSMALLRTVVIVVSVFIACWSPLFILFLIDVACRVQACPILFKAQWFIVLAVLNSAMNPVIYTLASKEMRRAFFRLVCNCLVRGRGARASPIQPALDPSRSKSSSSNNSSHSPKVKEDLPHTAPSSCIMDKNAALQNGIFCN
# PMI act = activators of human PMI, primary screen, biochemical, fluorescence intensity, near-Km mannose 6-phosphate; AID 1214, 2008; activation factor at 20 µM; Mannose-6-phosphate isomerase (Homo sapiens), P34949; purified human PMI, coupled resazurin fluorescence, 20 min; hits give high values; 1 = vehicle control, 0 substrate-free wells; 190,000 tested, 0.005% active;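 active means activation factor of 2 or more at 20 µM, relative to plate controls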
# Hsp70 activator = Hsp70 transcriptional activators, primary screen, cell-based, HeLa, Hsp70 promoter luciferase, luminescence, 10 µM; HeLa Hsp70 promoter luciferase reporter; scaled: vehicle 0, proteasome-inhibitor control 100%; AID 1203, 2008; 200,000 tested, 0.04% active; activation, % at 10 µM;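 active means activation above the mean across all tested compounds plus 3 SD, cutoff set per campaign, cut at about 5.5% in these data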;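 further: 100% = MG132 at 30 µM as the positive control and 0% = DMSO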
# HMGR II inh = inhibitors of E. faecalis class II HMGR, primary screen, biochemical, Enterococcus faecalis. purified E. faecalis HMGR, NADPH absorbance 340 nm kinetic. inhibition, % at 10 µM. 190,000 tested, 0.41% active. AID 1066, 2008;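 active means inhibition above a set limit, the median over all tested compounds plus 3 SD, cut at about 9.5% in these data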;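 further: enzyme runs in reverse so mevalonate oxidation gives rising NADPH absorbance; 0% = complete reaction with DMSO and 100% = background rate lacking mevalonate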
# PMI act hi M6P = human PMI activators, high substrate, primary screen, biochemical, fluorescence intensity, near-saturating mannose 6-phosphate | 190,000 tested, 0.34% active | activation factor at 20 µM | Mannose-6-phosphate isomerase (Homo sapiens), P34949 | coupled PMI enzyme assay, resazurin fluorescence, 20 min; hits give high values; 1 = untreated enzyme, 0 = substrate-free blank | AID 1216, 2008;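 active means activation factor of 2 or more at 20 µM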
#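 Material: human phosphomannose isomerase with PGI, G6PDH, diaphorase coupling enzymes. Quantity: 15 ng/mL PMI. Medium: HEPES pH 7.4 buffer with MgCl2 and Tween-20. Reagent: Near-saturating mannose-6-phosphate, 1.0 mM. Compound: 20 µM single dose. Times: enzyme reaction with compound 20 min at room temperature. Detection: resorufin fluorescence at Ex 544/Em 590 nm.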
# Numbers without * were called inactive; x = no result given; & = joins results of further samples.
S1P3 antag	PMI act	Hsp70 activator	HMGR II inh	PMI act hi M6P	smiles
-13	1	-0.2	2	1.1	Cc1nc2n(c(=O)c1CCN1CCC(c3noc4cc(F)ccc34)CC1)CCCC2
2	1	-0.3	2	1	O=C(O)/C=C/c1cnc[nH]1
8&-16	0.9&1	0.5&0.0	1&6	0.8&1	CC(=O)[C@H]1CC[C@H]2[C@@H]3CCC4=CC(=O)CC[C@]4(C)[C@H]3CC[C@]12C
-46	0.7	-0.1	-5	0.5	CCCCn1c(NC(=O)c2ccccc2)c(C#N)c2nc3ccccc3nc21
-1	1.1	-0.3	1	1	O=C1CN(/N=C/c2ccc([N+](=O)[O-])o2)C(=O)N1
-8	1	-0.3	3	1	Cc1cnc(C(=O)NCCc2ccc(S(=O)(=O)NC(=O)NC3CCCCC3)cc2)cn1
x	0.9	-0.3	-2	0.8	COc1ccc(-c2cc(NCc3ccccn3)n3ncnc3n2)cc1
2&-12	0.9	-0.2&-0.3	-6&7	0.7	C[C@H]1O[C@H]1P(=O)(O)O
-2	0.9	0.0	-2	0.9	CC(=O)NNc1ncnc2c1cnn2-c1ccc(C)cc1
-7	1	-0.2	-1	1	CCN(CC)CCCNC(=O)CCC(=O)NNc1nc2ccccc2c2nc(C)nn12
1	1	-0.1	0	1	O=C(Nc1ncn[nH]1)c1cc(S(=O)(=O)Nc2cccc(C(F)(F)F)c2)ccc1Cl
-18	1.1	-0.1	-2	1.3	NCCS
-11	1.1	-0.1	-6	1.1	CC(C)[N+]1(C)[C@@H]2CC[C@H]1CC(OC(=O)C(CO)c1ccccc1)C2 (stereo not given in full)
x	1	-0.2	-1	1	Cn1cc(Br)c(C(=O)NNC(=O)c2cccc(Br)c2)n1
x	0.9	0.3	0	1	Cc1ccc(C)c2c1[nH]c1ccc([N+](=O)[O-])cc12
-9	1.1	0.0	-1	1	O=C(Nc1ncn[nH]1)c1cc(S(=O)(=O)Nc2ccc(Cl)cc2)ccc1Cl
x	0.8	-0.1	-1	0.9	O=C(Nc1ncn[nH]1)c1ccc(Cl)c(S(=O)(=O)N2CCCCCC2)c1
6	1.1	-0.2	-3	1.1	CCCNCC(O)COc1ccccc1C(=O)CCc1ccccc1 (stereo not given)
-7	1	-0.2	-1	0.4	CC1CCc2c(sc(NC(=O)CSc3nnc(-c4ccccc4)o3)c2C#N)C1 (stereo not given)

# Structures shown so far that contain a carbonyl joined to an NH by a bond outside any ring:
S1P3 antag	PMI act	Hsp70 activator	HMGR II inh	PMI act hi M6P	smiles
-46	0.7	-0.1	-5	0.5	CCCCn1c(NC(=O)c2ccccc2)c(C#N)c2nc3ccccc3nc21
-8	1	-0.3	3	1	Cc1cnc(C(=O)NCCc2ccc(S(=O)(=O)NC(=O)NC3CCCCC3)cc2)cn1
-2	0.9	0.0	-2	0.9	CC(=O)NNc1ncnc2c1cnn2-c1ccc(C)cc1
-7	1	-0.2	-1	1	CCN(CC)CCCNC(=O)CCC(=O)NNc1nc2ccccc2c2nc(C)nn12
1	1	-0.1	0	1	O=C(Nc1ncn[nH]1)c1cc(S(=O)(=O)Nc2cccc(C(F)(F)F)c2)ccc1Cl
x	1	-0.2	-1	1	Cn1cc(Br)c(C(=O)NNC(=O)c2cccc(Br)c2)n1
-9	1.1	0.0	-1	1	O=C(Nc1ncn[nH]1)c1cc(S(=O)(=O)Nc2ccc(Cl)cc2)ccc1Cl
x	0.8	-0.1	-1	0.9	O=C(Nc1ncn[nH]1)c1ccc(Cl)c(S(=O)(=O)N2CCCCCC2)c1
-7	1	-0.2	-1	0.4	CC1CCc2c(sc(NC(=O)CSc3nnc(-c4ccccc4)o3)c2C#N)C1 (stereo not given)

# These rows are one share of the data; the hit share may differ from the screen's.
